Sfp PPTase inh – qHTS Assay for Inhibitors of Bacillus subtilis Sfp phosphopantetheinyl transferase (PPTase); 4'-phosphopantetheinyl transferase ffp (Bacillus subtilis), Q9F4F7; Biochemical Sfp PPTase activity, qHTS; Potency, µM, without a hit: max response, negative = inhibition, actives largely listed as inhibitors; 310,000 tested, 3.5% active; active means well fitted inhibition curve with a large enough effect; inconclusive means small, poorly fitted or top-dose-only effect, or another doubt; inactive means no such curve, though single readings can be large or run the other way;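 further: the enzyme is Sfp with the accession as filed and its product quenches rhodamine fluorescence; potency means the concentration at half of the fitted maximal effect; 0% = enzyme reaction without inhibitor and -100% = no enzyme wells; top concentration of the series not given in the record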
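Compounds were incubated with enzyme (final 15 nM) for 15 min at room temperature before substrate addition started the reaction. Fluorescence at 525 nm excitation, 598 nm emission was recorded immediately and after 30 minutes.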
TRPML1 agonist – qHTS for Agonists of the Human Mucolipin Transient Receptor Potential 1 (TRPML1). Mucolipin-1 (Homo sapiens), Q9GZU1. TRPML1-expressing cells, Ca2+ dye fluorescence, FDSS; host cell line not named in the record; reference of the full effect not given here. activation, % (no concentration beside the values). 410,000 tested, 0.12% active. AID 624414, 2012; in the data active = activation above about 50%; inconclusive = about 30% to 50%; inactive = below about 30%; further: 0% is about no effect; the text of the record puts the active cut at 80%
Target sequence (Q9GZU1 whole entry, looked up): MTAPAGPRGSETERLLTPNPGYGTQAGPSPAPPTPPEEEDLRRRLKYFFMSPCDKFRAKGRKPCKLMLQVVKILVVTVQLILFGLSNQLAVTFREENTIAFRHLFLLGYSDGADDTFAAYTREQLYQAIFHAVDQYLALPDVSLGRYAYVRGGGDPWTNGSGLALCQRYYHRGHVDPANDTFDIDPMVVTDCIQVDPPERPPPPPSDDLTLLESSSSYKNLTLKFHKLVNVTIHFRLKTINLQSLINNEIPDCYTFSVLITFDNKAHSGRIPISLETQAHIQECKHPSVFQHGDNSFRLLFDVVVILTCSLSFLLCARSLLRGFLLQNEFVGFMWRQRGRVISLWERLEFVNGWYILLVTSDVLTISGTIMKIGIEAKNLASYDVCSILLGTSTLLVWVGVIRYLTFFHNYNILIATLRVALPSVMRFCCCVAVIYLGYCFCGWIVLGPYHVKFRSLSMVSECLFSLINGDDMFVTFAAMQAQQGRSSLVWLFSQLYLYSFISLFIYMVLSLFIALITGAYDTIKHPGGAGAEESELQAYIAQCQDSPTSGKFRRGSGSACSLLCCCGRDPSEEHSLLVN
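Agonist activity was taken from a 110 s kinetic Ca2+ dye read on the FDSS after pinning compounds onto TRPML1-DL cells. The cells were seeded at 1,500/well with Tet inducer, incubated about 16 h, then dye-loaded at room temperature.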
ClpP mod – qHTS Assay for Activators of ClpP. ATP-dependent Clp protease proteolytic subunit (Bacillus subtilis (strain 168)), P80244. purified B. subtilis ClpP, FRET peptide cleavage, 20 min. Potency, µM (doses to about 57.5 µM), for the others: top-dose activity change, negative = active. 340,000 tested, 1.9% active. AID 651965, 2013; active = well fitted falling curve with a large enough effect; inconclusive = small, poorly fitted or top-dose-only effect; inactive = no such curve, though single readings can be large or run the other way; further: potency means the concentration at half of the fitted maximal effect; the source files actives as falling curves though it sought activators and does not explain the sign; nearly all actives have a fitted effect of over 65% in size; many hits overshoot -100%
Target sequence (P80244 whole entry, looked up): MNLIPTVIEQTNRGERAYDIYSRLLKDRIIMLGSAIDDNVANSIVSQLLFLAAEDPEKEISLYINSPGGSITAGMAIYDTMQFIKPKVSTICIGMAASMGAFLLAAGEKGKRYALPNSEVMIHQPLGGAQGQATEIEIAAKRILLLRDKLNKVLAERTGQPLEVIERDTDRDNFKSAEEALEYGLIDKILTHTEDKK
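ClpP 10 microg/mL final, pH 8 Tris/KCl buffer with BSA, glycerol, Tween-20; compound pinned in; FRET-FV substrate; RT 20 min; Ex320/Em430; ΔFRET vs ADEP 5.8 microM, DMSO, no enzyme.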
Menin-MLL FL inh – qHTS Assay for Inhibitors Targeting the Menin-MLL Interaction in MLL Related Leukemias: Competition With Fluorescein Labeled MLL-derived Peptide. Fluorescence polarization, fluorescein-MLL peptide displacement from menin. FP activity change, % at 61.4 µM. 290,000 tested, under 10 active. AID 1766, 2009; inconclusive = falling polarisation curve, or a change in total fluorescence; inactive = total fluorescence flat and polarisation flat or rising; no compound was filed as active; the % refers to the polarisation; negative = inhibition;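 further: % of control where 0% means no effect; inhibitors lower the polarisation; unlabelled MLL peptide was the positive control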
TRPV1 potentiator – HTS Assay for Compounds that Act as Potentiators of the Vanilloid Receptor 1 | Transient receptor potential cation channel subfamily V member 1 (Homo sapiens), Q8NER1 | TRPV1-expressing cells, Fluo-8 calcium influx, capsaicin EC20 potentiation; host cell line not named in the record; control for the full effect not named in the record | potentiation, % at 8.33 µM | 320,000 tested, 0.02% active; active means potentiation above 80%; inconclusive means 30% to 80%; inactive means below 30%; further: 0% is about no effect
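Fluo-8 calcium influx in TRPV1-expressing cells, kinetic read (ex 480/em 520 nm). Compound added and read 3 min for agonist activity, followed by capsaicin at EC20 final and 2 min further read for enhancement.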
PINK1 modulator – A Quantitative High throughput Screen to Identify Chemical Modulators of PINK1 Expression; PINK1 immunofluorescence, high-content cytometry, 24 h; Potency, µM (titrated, usually from 76.6 µM), inactives show at the highest dose activation (PINK1 increase), most hits filed as activators; 410,000 tested, 0.2% active; AID 624263, 2012; active = well fitted activation curve with a large enough effect; inconclusive = small, poorly fitted or top-dose-only effect; inactive = flat fitted curve, though single readings scatter; cell line not stated here;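 further: potency means the concentration at half of the fitted maximal effect; % of control where 0% means no effect; nearly all actives have a fitted effect of over 65% in size; a mitochondrial uncoupler was the plate control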
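PINK1 protein, normally rapidly degraded, was detected by immunofluorescence after 24 hour compound treatment of a stable cell line. Titration data (5 concentrations) came from laser-scanning cytometry, with CCCP-treated wells as controls.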
TRPML1 inh – qHTS for Inhibitors of the Human Mucolipin Transient Receptor Potential 1 (TRPML1); Mucolipin-1 (Homo sapiens), Q9GZU1; TRPML1-inducible cells, Ca2+ dye fluorescence, FDSS; hits give low values; inhibition of EC80 agonist-evoked calcium signal; activity change, negative = inhibition, % (no concentration beside the values); 390,000 tested, 0.02% active; AID 624415, 2012; in the data active means activity change below about -50%; inconclusive means about -30% to -50%; inactive means above about -30%;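 further: stimulus is agonist 54-4 at its EC80 concentration; on the % scale 0 is the no-effect control and ±100 the full control effect; compound concentration not given in the record; the text of the record puts the active cut at -80%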
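Tet-induced TRPML1-DL cells loaded with Ca8 no-wash calcium dye were read kinetically on FDSS. Compound addition was followed by EC80 agonist 54-4 (4 uM final); inhibition was read over 110 s.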
* = called active by the depositor; ? = inconclusive; . = not tested or not shown; & = joins results of further samples; [ ] = another dose, or the depositor's remark. No enrichment for hits. About 4.4% of those tested had a hit in this group.

Every second line gives: ClpP mod	PINK1 modulator	Menin-MLL FL inh	TRPML1 agonist	TRPML1 inh	TRPV1 potentiator	Sfp PPTase inh
> O=C(Cc1ccc(Br)cc1)OCC(=O)c1ccc2c(c1)OCCO2
 : -0.3%	2.4%	-1.4	-0.2	42	11	-2%
> Cn1nc(C(C)(C)C)cc1C(=O)Sc1cccc(Br)c1
 : .	2.8%	6.1	1.1	9	23	-11%
> Cc1ccc(C)c(CN2C(=O)c3ccccc3S(=O)(=O)c3ccc(C(=O)N4CCN(Cc5ccccc5)CC4)cc32)c1
 : 0.4%	1.4%	.	0.7	4	.	.
> COCCN(C(=O)COC(=O)CCC1CCCC1)c1c(N)n(Cc2ccccc2)c(=O)[nH]c1=O
 : .	-1.3%	.	1.3	-24	3	.
> CCC(=O)Oc1ccc(C(=O)Nc2ccc3c(c2)C(=O)N(C2CCCCC2)C3=O)cc1
 : 25µM*	12%[38.3 µM]	-6.7	0.8	-6	-5	21%
> Cc1oc(-c2ccccc2F)nc1CS(=O)CC(=O)NCc1ccc(F)cc1 (configuration not stated)
 : -4.7%	-0.6%	-0.1	0.0	-6	-21	-2%
> c1ccc(Nc2cccc3c(Nc4ccccc4)cccc23)cc1
 : .	?	3.2	0.4	23	-4	5%
> N#Cc1cccc(NC(=O)COC(=O)CCc2nc3ccccc3c(=O)[nH]2)c1
 : .	2.0%	11	1.5	-9	12	14%
> CCOc1cc2c(cc1OCC)C(C(=O)O)C(c1cc(Br)c(O)c(OC)c1)N(C)C2=O (configuration not stated)
 : -2.9%	0.6%	1.0	-0.7	7	10	9%
> Cc1ccc(CSC2=CS(=O)(=O)c3ccccc3N2)cc1
 : 1.7%	3.6%	1.4	-0.3	1	-8	6%
> O=C(NCCCN1CCOCC1)C(C(=O)NCCCN1CCOCC1)c1ncc(C(F)(F)F)cc1Cl
 : 0.4%	3.1%	0.1	-0.4	-1	-2	15%
> Cn1nc(N)c2c(-c3ccc(Cl)cc3)c(C#N)c(N)nc21
 : 0.6%	-1.5%	9.3	-0.4	9	12	3%
> Cc1cc(C)cc(NC(=O)Cn2c(-c3ccccc3Cl)nc3ccccc32)c1
 : 28µM*	15%	5.5	2.4	11	-2	?
> COC(=O)CN1C(=S)N(c2ccc(Cl)cc2)C(=O)C1CC(=O)Nc1ccccc1 (configuration not stated)
 : 13µM*	14%	8.9	0.0	4	-4	8%
> O=C1N(Cc2ccc(F)cc2)CCN1c1ccc(F)cc1
 : -0.1%	0.9%	1.2	0.0	?	-2	6%
> CC(OC(=O)CNC(=O)c1ccc(F)cc1)C(=O)Nc1ccc(S(=O)(=O)N2CCOCC2)cc1 (configuration not stated)
 : 0.8%	1.4%	.	-0.2	-2	-9	.
> Cc1ccc(N(C)S(=O)(=O)c2c[nH]c3ccc([N+](=O)[O-])cc23)cc1
 : -2.1%	0.9%	.	-0.2	2	-10	-1%
> N#C/C(=C\c1cccnc1)c1nc2c(s1)CCCC2
 : .	1.7%	-7.1	1.3	20	-22	10%
> CCOC(=O)c1ccc(NC(=O)Cn2cc(C(=O)c3ccc(CC)cc3)c(=O)c3ccc(C)nc32)cc1
 : 0.6%	1.2%	.	0.9	21	.	.
> Cc1cc(Cl)ccc1OC(C)C(=O)Nc1ccc(C(=O)Nc2ccccc2C(=O)O)cc1 (configuration not stated)
 : -2.7%	-0.2%	.	0.5	5	-2	1%
> CCOc1[nH]n(-c2ccccc2)c(=O)c1C=NCc1cccnc1
 : 0.1%	-0.5%	-1.5	-1.3	-14	-28	10%
> O=S(=O)(c1ccccc1)n1nc(-c2ccccc2)nc1NCc1ccc(Cl)cc1
 : -1.8%	0.2%	.	2.8	-6	.	.
> CCOC(=O)c1nc(-c2ccc(OC)c(OC)c2)cnc1C#N
 : 3.2%	-2.0%	-0.6	-0.4	0	-2	1%
> CCN(CCn1cccn1)C(=O)c1cc(COc2c(F)cccc2F)on1
 : .	0.2%	2.3	-0.6	-2	4	7%
> Cc1ccc(Cc2c(-c3cccc(Br)c3)nc3ccc(Br)cn23)cc1
 : -4.2%	2.6%	.	-0.8	-7	.	.
> COc1cc(CN2CCN(Cc3ccc(C)cc3)C(CCO)C2)cc(OC)c1O (configuration not stated)
 : -0.3%	1.7%	1.4	0.0	-2	-3	0%
> CCC(C)NC(=O)Cn1cnc2sc(C)c(S(=O)(=O)N3CCN(c4ccccc4OC)CC3)c2c1=O (configuration not stated)
 : 0.7%	8.5%&1.5%	4.9	0.0&-0.4	0&11	2	28%
> CCC1CCCN1Cn1cnc2c([nH]c3ccc(Cl)cc32)c1=O (configuration not stated)
 : -30%	0.1%	-0.3	0.8	22	9	3%
> CCOC(=O)CCCNC(=O)CCCNC(=O)C(c1ccccc1)c1ccccc1
 : -0.8%	0.1%[38.3 µM]	3.7	-0.4	-5	7	9%
> Cc1ccc(-n2c([O-])nc(-[n+]3ccccc3)c2C=O)cc1
 : -0.5%	.	?	0.6	-7	?	11%
> N#C/C(=C\c1ccc(OCc2ccccc2)cc1)C(N)=O
 : .	0.1%	3.8	0.9	12	-7	-19%
> C=CCC1CCCC(=O)N2CC[C@H](O)C12 (some centres not stated)
 : -2.5%	0.9%	?	-0.3	5	5	22%&6%
> CC1(c2ccc(OC(F)F)cc2)NC(=O)N(CC(=O)c2ccc3c(c2)OCO3)C1=O (configuration not stated)
 : .	2.9%	.	17	-8	-15	.
> COc1ccc(CCNC(=O)Nc2ccc(F)cc2F)cc1OC
 : -1.0%	-2.5%	-6.9	3.1	-3	5	-19%
> O=C(c1ccc(Cl)cc1)c1c[nH]c(C(=O)C(Cl)(Cl)Cl)c1
 : 0.9%	-0.1%	1.2	-0.5	7	16	18%
> CC(C)(C#N)NC(=O)C(=O)c1c(-c2ccccc2)cc2ccccn12
 : 1.9%	-0.3%	5.0	-0.8	-10	-10	4%
> CC1Cc2ccccc2N1CC(=O)Nc1ccc2c(c1)OCO2 (configuration not stated)
 : 0.6%	-1.7%[38.3 µM]	-3.1	0.3	0	-4	2%
> CC(C)CC(c1nnnn1CCc1ccccc1)N1CCN(C(=O)c2ccco2)CC1 (configuration not stated)
 : -1.8%	-1.4%	-0.6	-0.7	0	-17	-6%
> O=C(CSc1nnc(-c2cccc(Br)c2)o1)NCC1CCCO1 (configuration not stated)
 : 0.9%	1.1%	.	-0.4	-2	.	.
> Cc1nc2ccccc2c2c1C(=O)N(C)C2=O
 : 1.7%	-0.2%[38.3 µM]	-0.2	0.9	58	22	-14%
> CCOC(=O)N1C(=O)[C@@](CC)(c2ccccc2)N1C(=O)OCC
 : 0.8%	-2.0%	-2.1	1.4	45	-30	-16%
> COc1ccccc1N1CCN(C(=O)C2c3ccccc3Oc3ccccc32)CC1
 : -1.9%	-1.5%	-3.2	1.9	-19	5	2%
> Cn1c(S(=O)(=O)c2ccc([N+](=O)[O-])cc2)nc(Br)c1Br
 : .	-0.9%	0.7	1.8	-10	8	-3%
> Cc1ccc(C(C)C)c(OCCNCc2ccccc2)c1
 : 1.0%	-1.6%	-4.2	-0.5	-4	3	-19%
> Cc1ccc(N)c(C(O)(C(F)(F)F)C(F)(F)F)c1
 : -1.9%	2.5%	1.8	-0.4	3	3	11%
> COc1ccc(CCNC(=O)CCc2c(C)nc3cc(-c4cccc(F)c4)nn3c2C)cc1OC
 : -19%	1.9%	.	-0.8	-16	.	.
> COC(=O)CCNS(=O)(=O)c1ccc2nsnc2c1
 : 0.5%	0.4%	.	-0.2	-9	0	.
> O=C(c1ccccc1N1CCOCC1)N1CCCC(Nc2ccc(F)cc2)C1 (configuration not stated)
 : 0.0%	-0.2%	-6.1	0.2	-11	-11	9%
> CCOC(=O)c1nnn2c3ccccc3c(=O)n(C)c12
 : -1.1%	0.3%	2.2	-0.8	-17	7	6%
> COc1cc(CNC2CCCC2)cc(Cl)c1OCc1ccccc1Cl
 : -2.9%	?	2.2	3.1	-13	1	-10%
> O=S1(=O)N=C2CCCCCN2C(c2ccc(F)cc2)N1 (configuration not stated)
 : 0.4%	1.1%	-1.3	1.8	30	-1	-2%
> CCCn1nc(NC(=O)c2cccs2)c2cc3ccccc3nc21
 : -5.3%	8.9%	11	0.3	-10	-5	-19%
> Cc1ccc(CN2CCCn3nc(C(=O)NCCN(C)C)cc3C2=O)cc1
 : -3.5%	4.2%	.	-0.8	-1	.	.
> CC(Cc1n[nH]c(=S)o1)c1ccccc1 (configuration not stated)
 : -0.4%	-2.0%	-5.5	0.9	-4	-9	-19%
> Cc1ccc(-c2ccc(/C=N/c3ncn[nH]3)o2)cc1Cl
 : ?	1.0%	18	-1.6	-1	-1	56µM*
> COC(=O)c1ccc(C(=O)OC)c(NC(=S)N2CCCC(CO)C2)c1 (configuration not stated)
 : -9.5%	-1.0%	-2.4	-0.3	-1	1	21%
> CC(Cc1ccc(O)c(O)c1)(NN)C(=O)O (configuration not stated)
 : .	1.4%	1.6	.	.	.	50µM*
> Cc1noc(C)c1C(=O)N1CCN(S(=O)(=O)c2cccc(Cl)c2Cl)CC1
 : .	-2.8%	-1.6	1.4	18	?	14%
> CCN(CC)CCCNC(=O)c1[nH]c2ccccc2c1Sc1ccc(Cl)cc1
 : -3.1%	-4.2%	11	0.5	34	-9	?
> N=c1sccn1CC(=O)Nc1ccccc1Cc1ccccc1
 : -2.3%	-2.2%[38.3 µM]	-1.7	0.4	44	16	-1%
> Cc1nc2ccccc2n1CSc1ccccc1
 : -2.2%	0.7%	2.0	0.9	-5	2	4%
> Cc1ccc(S(=O)(=O)N(Cc2cc3cc4c(cc3[nH]c2=O)OCCO4)CC2CCCO2)cc1 (configuration not stated)
 : ?	14%[38.3 µM]	6.4	3.4	4	6	5%
